Vaccinia inh = blocks a specific stage of Vaccinia orthopoxvirus infection; Vaccinia-infected cells, mCherry/Venus stage reporter fluorescence; stronger effect = lower value; some inactives read as strong as hits; activity change (mCherry), % (test concentration not listed); 0.01% of 89,000 active;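 active = mCherry past -33% and 40 or more points under the early reporter, replicates agreeing; inconclusive = past -33% without that gap or agreement; tested in A549 cells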;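 also: scaled between vehicle wells and reference inhibitor wells; 23 nL library stock went into each well; one replicate is shown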
Vaccinia inh Venus = recorded beside Vaccinia inh, whose call it bears; activity change (Venus), %; measured here: Venus reporter, other viral stage;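 negative = less Venus signal; first of two replicates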
Active calls of the source: *; ? = inconclusive; nt = not tested or not shown.

Compound	Vaccinia inh	Vaccinia inh Venus
COc1ccccc1-c1ccc2n(c1=O)C[C@@H]1[C@@H](CO)[C@H](C(=O)NC3CCC3)N(C(=O)NC(C)C)[C@H]21	0	-3
CCCC(=O)Nc1ccc2c(c1)OC[C@@H](C)N(C(=O)CN1CCOCC1)C[C@@H](C)[C@H](OC)CN(C)C2=O	13	10
O=C(Cc1ccccn1)NCC[C@H]1CC[C@H](NS(=O)(=O)c2ccc(F)cc2)[C@H](CO)O1	-4	4
CCS(=O)(=O)N1CCC2(CC1)CN(C(=O)Cc1ccccn1)[C@@H](CO)c1[nH]c3cc(OC)ccc3c12	11	-1
C[C@H]1CN([C@@H](C)CO)C(=O)Cc2cc(NC(=O)Cc3cn(C)c4ccccc34)ccc2O[C@H]1CN(C)S(=O)(=O)c1ccccc1	-7	4
COCC(=O)N[C@H]1C[C@@H]2O[C@@H](CO)CC[C@@H]2O[C@@H]1CCc1ccc(-c2ccccc2)cc1	-15	-12
CO[C@@H]1CN(C)C(=O)c2ccc(NC(=O)Nc3ccc(C(F)(F)F)cc3)cc2OC[C@H](C)NC[C@H]1C	-32	-12
CC(=O)N1[C@@H]2Cn3c(ccc(-c4ccccc4)c3=O)[C@H]1[C@@H](C(=O)NCCCN1CCOCC1)[C@@H]2CO	26	24
Cn1cnc(S(=O)(=O)N2C[C@@H](O)COC[C@@H]3O[C@@H](CC(=O)NCc4cccc(F)c4)CC[C@H]32)c1	-5	4
CO[C@@H](CN(C)S(=O)(=O)c1ccc(C)cc1)[C@@H](C)CN(Cc1ccccc1Cl)[C@@H](C)CO	-19	-15
C[C@@H]1CN([C@H](C)CO)C(=O)c2ccccc2-c2ccccc2CO[C@@H]1CN(C)Cc1ccccc1	-21	-23
C/C=C/c1ccc2c(c1)O[C@@H](CN(C)C(=O)CC)[C@@H](C)CN([C@@H](C)CO)S2(=O)=O	4	9
CCCC(=O)Nc1ccc2c(c1)C(=O)N(C)[C@H]1CC[C@@H](CC(=O)Nc3ccccc3)O[C@@H]1CO2	1	6
CO[C@H]1CN(C)C(=O)c2ccc(NC(=O)Nc3cccc(F)c3)cc2OC[C@@H](C)N(C)C[C@H]1C	3	6
O=C(C[C@@H]1C[C@H]2c3cc(NC(=O)Nc4ccc(C(F)(F)F)cc4)ccc3O[C@H]2[C@@H](CO)O1)NCc1ccccn1	-3	-1
O=C(C[C@H]1C=C[C@@H](NC(=O)c2ccncc2)[C@@H](CO)O1)Nc1ccccc1	-1	-1
CO[C@H]1CN(C)C(=O)c2ccc(NC(=O)Cc3ccccc3)cc2OC[C@@H](C)N(CC2CC2)C[C@H]1C	0	-4
Cc1noc(C)c1S(=O)(=O)N(C)C[C@H]1OCCCC[C@@H](C)Oc2ccc(NS(C)(=O)=O)cc2C(=O)N([C@H](C)CO)C[C@@H]1C	1	-7
CN1c2ccc(-c3ccccc3)cc2[C@@H]2[C@@H](CCN2C(=O)CC2CC2)[C@@H]1CO	-20	-23
Cc1ccc(S(=O)(=O)Nc2ccc3c(c2)CC(=O)N([C@H](C)CO)C[C@@H](C)[C@H](CN(C)Cc2ccc(Cl)c(Cl)c2)O3)cc1	?	nt
Cc1noc(C)c1NC(=O)N[C@@H]1CC[C@H](CCNC(=O)C2CCCC2)O[C@H]1CO	-2	3
C[C@H](CO)N1C[C@H](C)[C@H](CN(C)Cc2ccccc2C(F)(F)F)OCc2ccccc2-c2c(n(C)c3ccccc23)C1=O	?	nt
COC(=O)C[C@H]1CC[C@@H]2[C@@H](COc3ccc(NC(=O)c4ccc(F)cc4)cc3C(=O)N2C)O1	-3	0
COc1ccc(-c2ccc(C3[C@H]4CNC[C@@H]3N4CC3CCOCC3)cc2)cc1 (stereo partly specified)	4	5
C[C@H]1CN([C@@H](C)CO)C(=O)c2c(c3ccccc3n2C)-c2ccccc2CO[C@H]1CN(C)Cc1ccc(-c2ccccc2)cc1	-14	-6
CO[C@H]1CN(C)C(=O)c2ccc(NC(=O)NC(C)C)cc2OC[C@H](C)NC[C@H]1C	-8	-8
Cc1noc(C)c1S(=O)(=O)Nc1ccc2c(c1)C(=O)N([C@@H](C)CO)C[C@H](C)[C@H](CN(C)Cc1ccccc1)O2	-6	-1
COC(=O)[C@@H]1[C@@H](CO)[C@@H]2Cn3c(ccc(-c4cccc(F)c4)c3=O)[C@@H]2N1Cc1ccncc1	6	18
C[C@@H]1CN([C@@H](C)CO)C(=O)c2cc(-c3cncnc3)cnc2O[C@@H]1CN(C)C(=O)Cc1ccccn1	2	9
CN(C)CC(=O)Nc1ccc2c(c1)[C@H]1C[C@@H](CC(=O)NCc3ccc4c(c3)OCO4)O[C@@H](CO)[C@H]1O2	5	8

For convenience, some entries already given:
Compound	Vaccinia inh	Vaccinia inh Venus
COc1ccccc1-c1ccc2n(c1=O)C[C@@H]1[C@@H](CO)[C@H](C(=O)NC3CCC3)N(C(=O)NC(C)C)[C@H]21	0	-3
CCCC(=O)Nc1ccc2c(c1)OC[C@@H](C)N(C(=O)CN1CCOCC1)C[C@@H](C)[C@H](OC)CN(C)C2=O	13	10
O=C(Cc1ccccn1)NCC[C@H]1CC[C@H](NS(=O)(=O)c2ccc(F)cc2)[C@H](CO)O1	-4	4

One compound at a time (already shown). Order of screens: Vaccinia inh | Vaccinia inh Venus
C[C@H]1CN([C@@H](C)CO)C(=O)c2c(c3ccccc3n2C)-c2ccccc2CO[C@H]1CN(C)Cc1ccc(-c2ccccc2)cc1 across the screens: -14 | -6
CO[C@@H](CN(C)S(=O)(=O)c1ccc(C)cc1)[C@@H](C)CN(Cc1ccccc1Cl)[C@@H](C)CO across the screens: -19 | -15
CN(C)CC(=O)Nc1ccc2c(c1)[C@H]1C[C@@H](CC(=O)NCc3ccc4c(c3)OCO4)O[C@@H](CO)[C@H]1O2 across the screens: 5 | 8

The list continues.
Compound	Vaccinia inh	Vaccinia inh Venus
O=C(C[C@H]1CC[C@@H](NC(=O)Nc2ccc(C(F)(F)F)cc2)[C@@H](CO)O1)NCc1cccc(F)c1	-9	-14
Cc1ccc(S(=O)(=O)Nc2ccc3c(c2)C(=O)N([C@@H](C)CO)C[C@H](C)[C@H](CN(C)C(=O)Nc2cccc4ccccc24)OCCCC[C@H](C)O3)cc1	5	7
COc1ccc(NC(=O)N(C)C[C@@H]2Oc3ccc(NS(=O)(=O)c4ccccc4)cc3CC(=O)N([C@@H](C)CO)C[C@H]2C)cc1	-1	-2
COc1ccc(NC(=O)N(C)C[C@@H]2Oc3c(NC(=O)c4cc(C)nn4C)cccc3C(=O)N([C@@H](C)CO)C[C@@H]2C)cc1	23	12
COc1cccc(-c2cn(CC[C@@H]3CC[C@@H](NS(=O)(=O)Cc4ccccc4)[C@@H](CO)O3)nn2)c1	-12	1
CN(C)CCCNC(=O)[C@H]1[C@H](CO)[C@H]2Cn3c(ccc(-c4cccc(F)c4)c3=O)[C@@H]1N2	13	13
C[C@@H]1CN([C@@H](C)CO)C(=O)c2cccc(NC(=O)c3ccncc3)c2O[C@H]1CN(C)Cc1ccncc1	21	16
C/C=C/c1ccc([C@@H]2[C@H](CO)N(CC3CC3)[C@H]2CNC(=O)c2ccccc2)cc1	-28	-5
C[C@@H]1CCCCO[C@@H](CN(C)S(=O)(=O)c2ccc(F)cc2)[C@@H](C)CN([C@@H](C)CO)C(=O)c2cc(NS(=O)(=O)c3cccs3)ccc2O1	18	5
CN1C(=O)c2cc(NC(=O)C3CCOCC3)ccc2OC[C@@H]2O[C@@H](CC(=O)NCCc3ccncc3)CC[C@@H]21	16	12
COCCNC(=O)C[C@@H]1C=C[C@H](NC(=O)NC2CCCC2)[C@H](CO)O1	6	1
CO[C@H]1CN(C)C(=O)c2cc(NC(=O)NC(C)C)ccc2OC[C@@H](C)N(S(C)(=O)=O)C[C@@H]1C	17	15
CN1C(=O)c2cc(NC(=O)c3ccc(Cl)cc3)ccc2OC[C@H]2O[C@@H](CC(=O)O)CC[C@@H]21	7	-1
Cc1cc(C(=O)Nc2cccc3c2O[C@@H](CN(C)C(=O)NC2CCCCC2)[C@H](C)CN([C@H](C)CO)C3=O)n(C)n1	-3	-11
Cc1ccc(-c2ccc([C@@H]3[C@H]4CN(C(=O)Nc5ccccc5)CCCCN4[C@H]3CO)cc2)cc1	?	nt
C[C@H](CO)N1C[C@H](C)[C@H](CN(C)Cc2ccncc2)OCCCC[C@H](C)Oc2ccc(NC(=O)CCC(F)(F)F)cc2C1=O	9	3
COc1ccc(-c2ccc([C@H]3[C@@H](CO)N4C(=O)CN(C(=O)C5CC5)C[C@@H]34)cc2)cc1	10	8
C[C@@H]1CN([C@@H](C)CO)C(=O)Cc2cc(NC(=O)CCCN(C)C)ccc2O[C@@H]1CN(C)Cc1ccc(-c2ccccc2)cc1	?	nt
CCN1[C@@H]2c3ccc(-c4ccncc4)c(=O)n3C[C@H]1[C@H](CO)[C@H]2C(=O)NCCc1cn(C)cn1	-4	1
O=C(O)C[C@@H]1CC[C@@H](NC(=O)Nc2ccccc2)[C@@H](CO)O1	4	-2
C[C@@H]1CN([C@H](C)CO)S(=O)(=O)c2ccc(C3=CCCC3)cc2O[C@H]1CN(C)Cc1ccncc1	-6	-1
COCC(=O)N1CC(=O)N2[C@H](CO)[C@@H](c3ccc(C#Cc4cccc(OC)c4)cc3)[C@H]2C1	-16	-22
O=C(C1CCC1)N1CC2(C1)[C@H](c1ccccc1)[C@H](CO)N2C(=O)c1cccnc1	5	-1
CCC(=O)N1[C@H](C(=O)NC2CCC2)[C@@H](CO)[C@@H]2Cn3c(ccc(C4=CCCCC4)c3=O)[C@@H]21	22	15
C[C@H](CO)N1C[C@H](C)[C@H](CN(C)Cc2ccc3c(c2)OCO3)OCCCC[C@H](C)Oc2ccc(NC(=O)Nc3ccc(F)cc3)cc2C1=O	?	nt
C[C@H]1CN([C@@H](C)CO)C(=O)Cc2cc(NS(=O)(=O)c3ccc(F)cc3)ccc2O[C@@H]1CN(C)C(=O)Nc1ccccc1	7	3
C[C@H]1CN([C@@H](C)CO)C(=O)c2cccc(NS(C)(=O)=O)c2O[C@@H]1CN(C)CC1CC1	8	8
C[C@H]1CCCCO[C@H](CN(C)Cc2ccccc2)[C@@H](C)CN([C@@H](C)CO)C(=O)c2cc(NC(=O)CCCN(C)C)ccc2O1	-7	8
C[C@@H]1CN([C@H](C)CO)S(=O)(=O)c2ccc(-c3ccncc3)cc2O[C@@H]1CN(C)C(=O)c1ccc2c(c1)OCO2	22	16
N#C[C@H]1[C@H](c2ccccc2)[C@H](CO)N1C(=O)Cc1ccccc1	4	1

(list continues)
| compound | Vaccinia inh | Vaccinia inh Venus |
| --- | --- | --- |
| Cc1ccc(S(=O)(=O)Nc2cccc3c2O[C@H](CN(C)S(=O)(=O)c2cccs2)[C@@H](C)CN([C@H](C)CO)C3=O)cc1 | 8 | 7 |
| Cc1ccc(-c2ccc3c(c2)O[C@H](CN(C)C(=O)Nc2ccccc2)[C@H](C)CN([C@H](C)CO)S3(=O)=O)cc1 | ? | nt |
| CNC(=O)C[C@H]1CC[C@@H]2[C@H](COc3ccc(NC(=O)Nc4ccccc4OC)cc3C(=O)N2C)O1 | 17 | 7 |
| CS(=O)(=O)N1CC2(C1)[C@H](c1ccccc1)[C@@H](CO)N2CC1CC1 | 4 | 3 |
| C[C@@H]1CN([C@H](C)CO)C(=O)c2cc(NC(=O)Nc3ccc(C(F)(F)F)cc3)ccc2O[C@H]1CN(C)S(=O)(=O)c1cn(C)cn1 | 7 | 5 |
| O=C(C[C@H]1C=C[C@@H](NS(=O)(=O)c2ccc(F)cc2)[C@@H](CO)O1)NC1CCCCC1 | -2 | 5 |
| COC(=O)[C@@H]1[C@@H](CO)[C@@H]2Cn3c(ccc(C4=CCCCC4)c3=O)[C@@H]2N1Cc1ccc2c(c1)OCO2 | -13 | -15 |
| CN1CCN(C(=O)C[C@H]2CC[C@@H]3[C@H](COC[C@H](O)CN3C(=O)Nc3ccc4c(c3)OCO4)O2)CC1 | 2 | 3 |
| C[C@@H]1CN([C@H](C)CO)C(=O)CCCn2nncc2CO[C@H]1CN(C)C(=O)Nc1ccc2c(c1)OCO2 | 22 | 13 |
| O=C(C[C@@H]1CC[C@@H]2[C@H](COC[C@@H](O)CN2CCC(F)(F)F)O1)NCc1ccc2c(c1)OCO2 | 17 | 6 |
| O=C(C1CCC1)N1CCCCN2[C@@H](CO)[C@H](c3ccc(-c4ccncc4)cc3)[C@@H]2C1 | 22 | 16 |
| CCS(=O)(=O)NCC[C@@H]1CC[C@@H](NS(=O)(=O)c2cccc(Cl)c2)[C@H](CO)O1 | -5 | 2 |
| C[C@H]1CN([C@@H](C)CO)C(=O)Cc2cc(N(C)C)ccc2O[C@@H]1CN(C)S(=O)(=O)c1cccs1 | 3 | 0 |
| C[C@H]1CN([C@@H](C)CO)C(=O)c2cc(-c3ccccc3F)cnc2O[C@@H]1CN(C)Cc1ccccc1 | -3 | -8 |
| COc1ccccc1-c1ccccc1[C@H]1[C@@H](CO)N(C(=O)C2CCC2)[C@H]1C#N | -17 | -6 |
| C[C@@H]1CCCCO[C@H](CN(C)C(=O)CCC(F)(F)F)[C@@H](C)CN([C@H](C)CO)C(=O)c2cc(NC(=O)CCC(F)(F)F)ccc2O1 | 6 | 2 |
| C[C@@H]1CN([C@@H](C)CO)C(=O)Cc2cc(NC(=O)c3ccncc3)ccc2O[C@@H]1CN(C)Cc1ccc(Cl)c(Cl)c1 | ? | nt |

Taken from above.
In Vaccinia inh Venus, CNC(=O)C[C@H]1CC[C@@H]2[C@H](COc3ccc(NC(=O)Nc4ccccc4OC)cc3C(=O)N2C)O1 has 7
In Vaccinia inh, COC(=O)[C@@H]1[C@@H](CO)[C@@H]2Cn3c(ccc(C4=CCCCC4)c3=O)[C@@H]2N1Cc1ccc2c(c1)OCO2 has -13

Quoted at random: two records from the list, in no set order.
| compound | Vaccinia inh | Vaccinia inh Venus |
| --- | --- | --- |
| CCCC(=O)Nc1ccc2c(c1)C(=O)N(C)[C@H]1CC[C@@H](CC(=O)Nc3ccccc3)O[C@@H]1CO2 | 1 | 6 |
| Cc1ccc(S(=O)(=O)Nc2ccc3c(c2)CC(=O)N([C@H](C)CO)C[C@@H](C)[C@H](CN(C)Cc2ccc(Cl)c(Cl)c2)O3)cc1 | ? | nt |

Source: PubChem BioAssay (Broad Institute)

A portion of the library, so the mix of outcomes need not match the whole.
